HCMV UL50-53 inh = cytomegalovirus nuclear egress complex inhibition; HTRF UL50-UL53 interaction, normalized percent inhibition; inhibition, % (no concentration beside the values); hit rate 0.15% among 190,000; AID 1918969;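 active = both replicates at 50% or more, plus weaker picks with an unusually low signal ratio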;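 note: stock transfer was 100 nL into about 20 µL; 0% = negative control wells and 100% = wells with untagged competitor protein; inactives centre near -12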
GIV-Gai inh = inhibitors of GIV GBA-motif binding to rat Galpha-i3; hit rate 0.42% among 210,000; AID 1224905; P08753; percent of control (FP), % (no concentration beside the values); Galpha-i3/FITC-GIV peptide fluorescence polarization, 90 min; stronger effect = lower value; scaled: aluminum fluoride 0%, vehicle 100%;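 active = replicate mean at 85% of control or lower, very high polarization wells dropped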;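 note: wells of about 15 µL received 100 nL stock; the first replicate is given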
Target sequence (P08753 whole entry, looked up): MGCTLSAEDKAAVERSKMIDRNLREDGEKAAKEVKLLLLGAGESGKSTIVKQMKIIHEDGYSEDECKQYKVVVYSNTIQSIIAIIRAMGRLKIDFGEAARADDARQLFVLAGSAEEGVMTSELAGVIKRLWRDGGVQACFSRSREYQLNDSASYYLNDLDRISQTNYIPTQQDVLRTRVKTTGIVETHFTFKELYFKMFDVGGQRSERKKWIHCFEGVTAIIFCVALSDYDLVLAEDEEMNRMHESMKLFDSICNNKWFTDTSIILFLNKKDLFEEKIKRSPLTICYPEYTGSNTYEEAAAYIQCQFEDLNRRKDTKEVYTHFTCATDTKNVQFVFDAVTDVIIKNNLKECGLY
Sa growth inh = blocks Staphylococcus aureus growth. S. aureus RN4220 growth, OD600, 20 h, 42 °C; stronger effect = lower value. relative growth, % (concentration not given with the values). hit rate 0.53% among 170,000. AID 720641;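 active = growth at 42 °C up to 50% and 20 or more points under that at 30 °C, or under 10% at both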;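 note: 300 nL library stock went into each well; scaled to the means of positive and negative controls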
Sa growth inh second temp = further read-out of Sa growth inh, marked with its call; relative growth, %; measured here: growth at 30 °C;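 optical density after 20 h as mean of two plates; 100% = untreated growth and lower means inhibition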
* = called active by the depositor; · = no result given; & = joins results of further samples. Compounds were not picked by outcome; about 0.83% have a hit in one of these screens.

Below each SMILES – HCMV UL50-53 inh | GIV-Gai inh | Sa growth inh | Sa growth inh second temp
- COc1ccc(S(N)(=O)=O)cc1-c1nnc2c3ccccc3c(C)nn12
→ · | 110 | 62 | 83
- Cc1c(C(=O)Nc2ccccc2)sc2nc(-c3cc4cc(Cl)ccc4oc3=O)[nH]c(=O)c12
→ -7 | 102 | 84 | 95
- CCN(CC)C(=O)CP(=O)(c1ccccc1)c1ccccc1
→ -7 | 104 | 103 | 99
- Cc1cccc(C(=O)OCCN2C(=O)c3cccc4c(N5CCOCC5)ccc(c34)C2=O)c1
→ -8 | 105 | · | ·
- Cc1cc(NC(=O)COC(=O)C2CCCCC2)no1
→ -33 | · | 88 | 92
- Clc1ccc(SCc2cn3ccsc3n2)cc1
→ -25 | 103 | 77 | 76
- COc1cc(-c2nnc(COC(=O)[C@H](C(C)C)N3C(=O)c4ccccc4C3=O)o2)cc(OC)c1OC
→ -9 | · | 89 | 86
- CC1(C(=O)O)NCCc2c1[nH]c1ccccc21 (stereo not given)
→ -3 | 112 | 99 | 94
- Cn1c(=O)sc2cc(S(=O)(=O)N3CCN(c4ccccn4)CC3)ccc21
→ -17 | 108 | · | ·
- Cc1coc2cc3oc(=O)c(CCC(=O)N4CCCCC4)c(C)c3cc12
→ -10 | 95 | 111 | 90
- CC1(CO)CSC(Nc2ccc(F)cc2F)=N1 (stereo not given)
→ -23 | 99 | 84 | 82
- CCOc1ccccc1C1CC(=O)C2=C(C1)Nc1ccccc1N(C(=O)CC)C2c1ccc(OC)cc1 (stereo not given)
→ -11 | 99 | · | ·
- CN1C(=O)C(Cc2ccccc2)NC1=S (stereo not given)
→ -32 | 105 | 114 | 90
- CCCN1C(=O)/C(=N\OCc2nnc(-c3cccs3)o2)c2ccccc21
→ -45 | · | 79 | 84
- CCCCN(Cc1ccccc1)S(=O)(=O)c1ccc2c(c1)oc(=O)n2CC(=O)OCC
→ · | 101 | 88 | 87
- Cc1nnc(N2CCN(C(=O)NC(C)C)CC2)c2nn(-c3ccccc3)c(C)c12
→ · | 113 | 107 | 89
- COc1ccc(OC)c(NC(=O)c2c(NCc3ccc(C)o3)sc3c2CCCCC3)c1
→ · | 119 | 99 | 51
- Cc1ccc(Nc2c(-c3ccc(C)s3)nc3ccccn23)cc1
→ -21 | 103 | 107 | 90
- Cc1cc(C)c(S(=O)(=O)NCC(c2cccs2)S(=O)(=O)c2ccccc2)c(C)c1 (stereo not given)
→ · | 104 | 108 | 97
- O=C(CCCc1c[nH]c2ccccc12)N1CCN(S(=O)(=O)Cc2ccccc2)CC1
→ -16 | · | 89 | 91
- CS(=O)(=O)N1CCN(c2ccc(Nc3c4c(nc5nc(-c6ccccc6)nn35)CCCC4)cc2)CC1
→ 6 | 96 | · | ·
- CCOc1ccc(-c2cc(C(=O)NCCCN3CCCCC3)c3ccccc3n2)cc1
→ · | 98 | 84 | 82
- O=C(Cn1c(=O)c2ccccc2n2c(=S)sc(-c3ccc(Br)cc3)c12)N1CCCC1
→ -19 | 94 | · | ·
- CCN=C1SC(CC(N)=O)C(=O)N1CC (stereo not given)
→ -1 | 98 | 94 | 93
- O=C(COC(=O)c1ccccc1C(=O)N1CCN(c2ccc(F)cc2)CC1)NC1CC1
→ -6 | · | 96 | 92
- CN(C)c1nc2ncnc(SCC(=O)Nc3ccc(F)c(F)c3)c2s1
→ 6 | 106 | · | ·
- O=C(NCc1ccc(Cl)cc1)c1cc(F)c(F)c(F)c1F
→ -6 | · | 82 | 91
- Cc1c(C(=O)N2CCCCC2)c(S(=O)(=O)NCc2ccc(N(C)C)cc2)c(C)n1C
→ · | 106 | 114 | 102
- COc1cccc(-c2nc(-c3cccs3)c(-c3cccs3)[nH]2)c1
→ -7 | 113 | 105 | 95
- COc1ccccc1N1CCN(S(=O)(=O)c2c(C)sc3ncn(CC(=O)NCCN(C)C)c(=O)c23)CC1
→ -13 | 105 | 88 | 93

In the list so far, 6 have an aryl methoxy group.
Below each SMILES – HCMV UL50-53 inh | GIV-Gai inh | Sa growth inh | Sa growth inh second temp
- COc1ccc(S(N)(=O)=O)cc1-c1nnc2c3ccccc3c(C)nn12
→ · | 110 | 62 | 83
- COc1cc(-c2nnc(COC(=O)[C@H](C(C)C)N3C(=O)c4ccccc4C3=O)o2)cc(OC)c1OC
→ -9 | · | 89 | 86
- CCOc1ccccc1C1CC(=O)C2=C(C1)Nc1ccccc1N(C(=O)CC)C2c1ccc(OC)cc1 (stereo not given)
→ -11 | 99 | · | ·
- COc1ccc(OC)c(NC(=O)c2c(NCc3ccc(C)o3)sc3c2CCCCC3)c1
→ · | 119 | 99 | 51
- COc1cccc(-c2nc(-c3cccs3)c(-c3cccs3)[nH]2)c1
→ -7 | 113 | 105 | 95
- COc1ccccc1N1CCN(S(=O)(=O)c2c(C)sc3ncn(CC(=O)NCCN(C)C)c(=O)c23)CC1
→ -13 | 105 | 88 | 93

Single records, from the list above. Order of values: HCMV UL50-53 inh, GIV-Gai inh, Sa growth inh, Sa growth inh second temp
`Cc1cc(NC(=O)COC(=O)C2CCCCC2)no1` as listed: -33, ·, 88, 92
`COc1ccc(OC)c(NC(=O)c2c(NCc3ccc(C)o3)sc3c2CCCCC3)c1` as listed: ·, 119, 99, 51
`Cc1c(C(=O)N2CCCCC2)c(S(=O)(=O)NCc2ccc(N(C)C)cc2)c(C)n1C` as listed: ·, 106, 114, 102

Further structures.
Below each SMILES – HCMV UL50-53 inh | GIV-Gai inh | Sa growth inh | Sa growth inh second temp
- CC(C)OCCCN1C(=O)Cn2cccc2C1C(=O)NC1CCCCC1 (stereo not given)
→ -4 | 112 | · | ·
- Cc1ccccc1-c1nc2sc3c(c2c(=O)o1)CCC3
→ -10 | 99 | · | ·
- O=C(N=Nc1[nH]c2ccccc2c1O)c1ccc(Cl)cc1
→ -37 | 102 | 121 | 92
- Cc1[nH]c2ccccc2c1C(Nc1ccccn1)c1ccc(C(F)(F)F)cc1 (stereo not given)
→ · | 103 | 80 | 3
- Cc1ccc(N2C(=O)CC(N3CCN(c4nc(C)cc(C)n4)CC3)C2=O)cc1 (stereo not given)
→ -26 | 98 | 95 | 89
- Clc1ccc2nc(N3CCCCC3)[nH]c2c1
→ · | 107 | 107 | 64
- COc1ccc(-c2nnc(SCC(=O)c3ccccc3)n2-c2ccccc2)cc1
→ -25 | 101 | · | ·
- O=C(CSc1nc2ccccc2c(=O)n1Cc1ccco1)OC1CCCCC1
→ -8 | 102 | 100 | 94
- O=C(Nc1cccc(C(=O)N2CCOCC2)c1)c1cncc(Br)c1
→ 11 | 108 | 101 | 85
- CC(=O)Nc1ccc(C(=O)OCC(=O)Nc2ccc(F)c(F)c2)cc1
→ 6 | · | 112 | 94
- COc1ccc(N(Cc2cccs2)C(=O)c2ccco2)cc1
→ -22 | 103 | 108 | 85
- COc1cc(SC#N)ccc1N=Cc1c(O)n(-c2cccc(C)c2)c(=O)[nH]c1=O
→ -8 | 106 | 75 | 99
- COc1ccc(CCN(C)C(=O)C2CCCN(Cc3ccc(OC)c(OC)c3)C2)cc1OC (stereo not given)
→ · | 108 | 105 | 85
- CCOc1ccc(OCC)c(NC(=O)c2nnn(CC(=O)Nc3cc(Cl)ccc3OC)c2N)c1
→ -26 | 105 | 105 | 75
- Cc1ccc(Cc2nc(-c3cccc(NC(=O)Nc4ccccc4)c3)no2)cc1
→ -27 | 103 | · | ·
- O=C(COC(=O)Cc1cccc(C(F)(F)F)c1)NCC1CCCO1 (stereo not given)
→ -3 | · | 90 | 92
- CCSC(=O)NC1CCCCC1
→ -43 | 101 | 102 | 81
- Cc1nn(-c2ccccc2)c2c1C(c1cccnc1)C1=C(CC(c3ccc(O)cc3)CC1=O)N2 (stereo not given)
→ 7 | 104 | · | ·
- CCN1CCN(C(=O)/C(C#N)=C/c2cc(C)n(C3CCCC3)c2C)CC1
→ -34 | · | 90 | 86
- CC(C)c1cccc(NC(=NCc2ccncc2)NC(=O)c2ccc3c(c2)OCO3)c1
→ -15 | 99 | · | ·
- COc1ccc(/C=C/C(=O)Nc2ccc(Cl)cc2Cl)cc1
→ -44 | 105 | 103 | 94
- O=C1CC(C(=O)Nc2cc(Cl)cc(Cl)c2)C2=C(CCCC2=O)N1 (stereo not given)
→ -8 | 99 | 90 | 94
- CC(=NCc1nnc(C)s1)c1cc2c(=O)n(C)c3ccccc3c2oc1=O
→ 3 | · | 110 | 90
- O=c1[nH]nc(SCc2cc(Cl)cc3c2OCOC3)n1CC1CCCO1 (stereo not given)
→ -16 | · | 95 | 96
- O=C(C1CNc2ccccc2O1)N1CCOCC1 (stereo not given)
→ -7 | · | 108 | 90
- Cn1c(=O)n(-c2ccc3c(c2)OCO3)c2nc(-c3cccc(Cl)c3)nc(C(N)=O)c21
→ -42 | 96 | · | ·
- CSc1nc2c(sc3ccccc32)c(=O)n1Cc1ccc(C)cc1
→ · | 102 | 118 | 88
- CCCNC(=O)C1CCN(Cc2nc(-c3ccc(OC)c(OC)c3)oc2C)CC1
→ -2 | 107 | 90 | 96
- COC(=O)c1sc(NC(=O)c2snnc2C)nc1C
→ -1 | 107 | · | ·
- COc1cc(OC)c(OC)cc1CNCCSc1nnnn1-c1ccccc1
→ -28 | 106 | 111 | 83

As entered above:
COC(=O)c1sc(NC(=O)c2snnc2C)nc1C in GIV-Gai inh is entered as 107
O=C(N=Nc1[nH]c2ccccc2c1O)c1ccc(Cl)cc1 in HCMV UL50-53 inh is entered as -37
COc1ccc(N(Cc2cccs2)C(=O)c2ccco2)cc1 in Sa growth inh second temp is entered as 85

The listing continues:
Below each SMILES – HCMV UL50-53 inh | GIV-Gai inh | Sa growth inh | Sa growth inh second temp
- CNc1nc2cc(Cl)ccc2s1
→ 2 | 111 | 86 | 45
- NS(=O)(=O)c1ccc(CNC(=O)c2cc(=O)c3ccccc3o2)cc1
→ -12 | 102 | 97 | 89
- Cc1ccc(S/C(=C/N(C)C)C(=O)c2ccc(C)cc2)cc1
→ -19 | 93 | 109 | 83
- CO[C@@]1(NC(=O)Cc2cccs2)C(=O)N2C(C(=O)O)=C(COC(N)=O)CS[C@@H]21
→ -2&-26&-57 | · | -1.0* | -0.8*
- CC1C2CCC(CO)(CC2)C1C (stereo not given)
→ -6 | 104 | 107 | 90
- CCOc1ccc(NC(=O)Cn2c(Nc3ccc(OCC)cc3)nc3c2c(=O)[nH]c(=O)n3C)cc1
→ -25 | 107 | 112 | 93
- COC(=O)c1cccc(C(=O)OC)c1
→ -1 | · | 78 | 73
- Nc1nonc1N1CCCCC1
→ · | 103 | 124 | 93
- O=C(NCc1ccccc1)NCc1c(-n2cccc2)sc2c1CCCC2
→ · | 103 | 103 | 88
- COc1ccc(C)cc1NC(=O)N1CCN(S(C)(=O)=O)CC1
→ -9 | 105 | 96 | 95
- O=C1OC(c2ccc(O)cc2)Nc2ccc(C(F)(F)F)cc21 (stereo not given)
→ 28 | · | 98 | 102
- N#Cc1cc2c(=O)n3ccccc3nc2n(Cc2ccco2)c1=N
→ -22 | · | 85 | 95
- CC1CCN(C(=O)c2ccc3c(c2)nnn3C)CC1
→ -6 | 102 | 107 | 69
- Cc1ccc(Cl)cc1N1CCN(CCNC(=O)CCCn2sc3ccccc3c2=O)CC1
→ 0 | 103 | 93 | 15
- Cc1nc2ccc(S(=O)(=O)N(CC(=O)Nc3cccc(Cl)c3)Cc3ccccc3)cc2s1
→ · | 96 | 69 | 89
- Cc1ccc(C2CC(=O)Nc3c2c(-c2ccccc2)nn3-c2ccccc2)cc1 (stereo not given)
→ -20 | 101 | · | ·
- Cc1sc2nc(CN(CCc3ccccc3)C(=O)c3ccco3)[nH]c(=O)c2c1C
→ -4 | 104 | 105 | 94
- NC(=O)CSc1n[nH]c(-c2ccco2)n1
→ 6 | 108 | 86 | 93
- CC(=O)N/C(=C\c1cnc(-c2ccccc2)[nH]1)C(=O)O
→ -8 | 129 | 112 | 81
- O=C(O)c1cccc(CSc2nc3ccccc3o2)c1
→ -38 | 98 | 131 | 95
- O=c1cc(OCc2ccccc2)c2ccccc2[nH]1
→ -12 | 98 | 97 | 96
- O=C(NCC1CCCO1)c1c(NC(=O)c2nn(-c3ccc(F)cc3)ccc2=O)sc2c1CCC2 (stereo not given)
→ -28 | 108 | · | ·
- CCOC(=O)N1CCc2c(sc(NCc3ccc(OCC)cc3)c2C(=O)Nc2ccc(OC)cc2OC)C1
→ · | 110 | 111 | 88
- Cc1ccc2cc3cc(C(=O)NCCN4CCN(c5cccc(Cl)c5)CC4)sc3nc2c1
→ · | 101 | 107 | 87
- O=C(c1cc(-c2ccccc2)nn1-c1ccccc1)N1CCC1
→ -4 | · | 85 | 104
- Cc1cccc(NC(=O)Nc2ccc(C)c(C)c2)c1
→ -14 | 107 | 133 | 101
- CCOC(=O)C1CCN(c2c(NCCc3ccc(Cl)cc3)c(=O)c2=O)CC1
→ 10 | 98 | · | ·
- Nc1ccc(Oc2cccc(Oc3ccc(N)cc3)c2)cc1
→ -14&-6 | 105&100 | 117&95 | 92&68
- O=c1c(-c2ccc(Cl)cc2)coc2cc(OC3OC(CO)C(O)C(O)C3O)ccc12 (stereo not given)
→ 7 | 100 | · | ·
- CCCNS(=O)(=O)c1cccc2cccnc12
→ · | 107 | 82 | 90
- COCCn1c(CN2CCN(S(=O)(=O)c3ccccc3)CC2)nc2ccccc2c1=O
→ -18 | 103 | · | ·

Screening data: PubChem BioAssay, ICCB-Longwood Screening Facility, Harvard Medical School
